Screening results as filed in PubChem BioAssay.
Mtb H37Rv = M. tuberculosis H37Rv growth inhibitors, H37Rv strain (AID 1626). M. tuberculosis H37Rv growth inhibition; higher % means a stronger effect. inhibition, % at 10 µM; hits with a dose series show IC50 in µM. actives 0.95% (n = 220,000);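 active means confirmed in a dose series; inconclusive means inhibition above 80% but not taken into the dose series; inactive means below 80% or under 30% at every dose of the series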;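 further: bacteria incubated seven days before Alamar blue readout; 0% = bacteria only wells and 100% = bacteria with antibiotic wells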
YopH inh = YopH (Yersinia) phosphatase inhibition; fluorescence Ex485/Em525; inhibition, %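 (about 10 µM by stock and volumes)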; actives 0.16% (n = 140,000); AID 898;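 active means inhibition of 50% or more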;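 further: controls were vehicle for no effect and minimum signal wells for full effect; inactives centre near -20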
Mtb bLac sens = beta-lactam sensitization of Mtb H37Rv. M. tuberculosis H37Rv growth with meropenem, percent inhibition; hits of this screen are not shown here. inhibition, % at 25 µM. actives 0.27% (n = 330,000). AID 434955;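 active means about 74% or more and at least 40 points above the plate without the antibiotic, then above 30% in a dose series; inconclusive means first-round hits that could not be retested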;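 further: growth measured after seven days incubation then overnight dye step; 0% = bacteria only wells and 100% = bacteria with antibiotic; twin plates without the antibiotic show which effects depend on it; some results filed as inactive read as strong as hits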
RecA splice inh = inhibitors of M. tuberculosis RecA intein splicing. AID 2221. actives 0.75% (n = 290,000). inhibition, %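 (about 9 µM by stock and volumes)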. cell-free RecA intein splicing, fluorescence. P9WHJ3; in the data active means inhibition above about 30%; inconclusive means no clear call, values can overlap the other calls;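 further: 0% = vehicle wells and 100% = reference inhibitor control wells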
Target sequence (P9WHJ3 whole entry, looked up, canonical isoform): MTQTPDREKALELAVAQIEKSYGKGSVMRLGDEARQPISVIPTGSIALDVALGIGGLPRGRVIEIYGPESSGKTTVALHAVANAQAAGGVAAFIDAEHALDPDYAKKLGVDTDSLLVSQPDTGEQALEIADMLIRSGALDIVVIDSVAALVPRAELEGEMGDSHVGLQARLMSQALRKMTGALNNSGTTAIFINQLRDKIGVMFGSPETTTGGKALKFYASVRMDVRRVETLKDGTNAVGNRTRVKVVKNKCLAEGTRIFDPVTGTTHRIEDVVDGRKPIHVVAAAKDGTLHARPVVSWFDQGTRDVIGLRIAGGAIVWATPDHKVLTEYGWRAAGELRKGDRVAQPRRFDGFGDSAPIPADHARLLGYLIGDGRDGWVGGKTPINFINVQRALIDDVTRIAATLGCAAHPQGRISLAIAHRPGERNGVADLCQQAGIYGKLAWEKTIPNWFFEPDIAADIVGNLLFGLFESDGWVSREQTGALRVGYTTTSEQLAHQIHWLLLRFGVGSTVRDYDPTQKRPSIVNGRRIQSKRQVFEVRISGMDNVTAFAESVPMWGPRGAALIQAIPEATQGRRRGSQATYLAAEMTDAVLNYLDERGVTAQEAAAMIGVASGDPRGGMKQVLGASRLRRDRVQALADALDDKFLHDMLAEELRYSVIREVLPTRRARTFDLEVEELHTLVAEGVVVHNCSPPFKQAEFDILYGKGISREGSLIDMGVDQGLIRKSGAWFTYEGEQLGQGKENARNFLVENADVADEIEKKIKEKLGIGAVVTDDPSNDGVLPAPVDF
Arbovirus inh = blocks arbovirus infection; arbovirus infection cell-based antiviral screen; inhibition, % at 10 µM; AID 1251; actives 0.37% (n = 200,000);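 active means inhibition from about 30%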;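 further: bluetongue infection of BSR cells; cell survival read as ATP light after 72 h; 0% = infected wells without compound and 100% = uninfected wells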
Arbovirus inh repeat = also measured in Arbovirus inh; calls as there; inhibition, %; measured here: 10K subset replicate screen; many hits read low in the repeat;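 first of two repeat runs on a subset; 0% = infected and 100% = uninfected wells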
Numbers without * were called inactive; ? = inconclusive; . = no result given.

SMILES | Mtb H37Rv | YopH inh | Mtb bLac sens | RecA splice inh | Arbovirus inh | others
Cc1cccc(NC(=O)C2CCCN2/C=C/C(=O)C(F)(F)F)c1C (stereo unspecified) | 0% | -2 | 5 | 2.8 | 3
Cc1ccc(-c2nc(S(=O)(=O)c3ccc(C)cc3)c(SCC(N)=O)o2)cc1 | . | . | -5 | 1.1 | .
COc1ccccc1N1CCN(Cc2c(F)cccc2F)CC1 | 1% | 23 | -9 | -1.0 | 13
O=C(CSc1nc2c(sc3ccccc32)c(=O)n1-c1ccccc1)NCc1ccco1 | 10% | -26 | -3 | 1.0 | 20
CN(C)S(=O)(=O)c1cc(NC(=O)c2cc(=O)[nH]c3ccccc23)ccc1Cl | 4% | . | 2 | 0.8 | 3
O=C(O)CCCC(=O)N1CCN(C(c2ccccc2)c2ccccc2)CC1 | 0% | -18 | -7 | -1.4 | 8
O=C(CCC1CC(=O)Nc2ccccc21)NCc1cccnc1 (stereo unspecified) | . | -7 | 2 | -0.3 | 9 | Arbovirus inh repeat=4
OCCN1CCOCCOCCN(CCO)CCN(CCO)CC1 | -5% | 7 | 1 | 1.1 | 8
CC(=O)Oc1ccc(C(=O)Nc2ccc3c(c2)OCCO3)cc1 | . | . | -2 | 5.4 | .
CC1CC(=O)NN=C1c1cccs1 (stereo unspecified) | 10% | . | -7 | 4.8 | .
C/C(CC(=O)NC1CCCCC1)=N\NC(=O)Cc1ccc(-c2ccccc2)cc1 | 0% | . | 3 | . | -6
O=c1[nH]c(CN2CCCCC2)nc2ccccc12 | 9% | 15 | -8 | -6.6 | 6
CC(=O)N1c2ccc(S(=O)(=O)N3CCCCC3)cc2CC1C(=O)NCc1ccccc1C (stereo unspecified) | . | . | -2 | -1.3 | .
COc1ccc(N2CCN(C(=O)COC(=O)c3ccco3)CC2)cc1 | . | . | ? | -4.6 | .
C#CCCOC(=O)N1C2=NC(C(=O)OC)=C(C(=O)OC)[C@@H]3N(C)c4ccc(OC)cc4[C@]23C[C@H]1C(=O)OC | 4% | . | 0 | -2.9 | .
Cc1cc(C)c(NC(=O)CS(=O)CC(=O)Nc2cccnc2)c(C)c1 (stereo unspecified) | -3% | -10 | -2 | 7.1 | 12
COc1cc(/C=N/NC(=O)c2cccnc2)ccc1OS(=O)(=O)c1ccc(C)cc1 | -2% | -20 | -3 | -1.6 | 7
COc1ccccc1N1CCN(S(=O)(=O)CCNC(=O)C2CCCCC2)CC1 | . | . | -8 | -0.1 | .
COC(=O)c1c(C)[nH]c(C(=O)CSc2ncnc3sc(-c4ccccc4)cc23)c1C | 11% | -3 | 1 | -6.5 | -26
O=C(c1ccc(Oc2ccc([N+](=O)[O-])cc2)cc1)N1CCCCCC1 | . | . | 4 | 4.4 | .
Cc1cc(C)cc(OC(=O)CCN2C(=O)c3ccccc3C2=O)c1 | -6% | -12 | 2 | 4.0 | -5
COc1cc(/C=N/NC(=O)c2ccncc2)ccc1OCCN1CCCCC1 | ? | -17 | 98 | 3.5 | 6
O=c1ccc2cc(S(=O)(=O)Nc3ccc(Br)cc3)ccc2o1 | . | . | -4 | -0.1 | .
CC(=O)c1ccc(OCC(O)CN2CCN(S(=O)(=O)c3c(C)cc(C)cc3C)CC2)cc1 (stereo unspecified) | . | . | 5 | -0.1 | .
CC(CCC(C)OC(=O)c1ccccc1C(=O)O)OC(=O)c1ccccc1C(=O)O (stereo unspecified) | . | . | -1 | 3.5 | .
COC(=O)C1CCN(c2cc(=O)n(Cc3ccc(F)cc3)c(=O)[nH]2)CC1 | -3% | -28 | 4 | -11 | 6
COCCN(C(=S)Nc1cc(C)cc(C)c1)C(C)c1ccco1 (stereo unspecified) | -4% | . | -10 | 8.0 | 1
COc1cccc(OCc2cc(C(=O)NC(C)c3cnn(C)c3C)no2)c1 (stereo unspecified) | . | . | 4 | -0.9 | .
CCn1nc(C)c(CNC(=O)Nc2ccc3c(c2)OCO3)c1C | -4% | . | -3 | -3.6 | 1
CC(C)(C)NC(=O)c1ccc2nsnc2c1 | -4% | -27 | 1 | 0.2 | 4
O=C(Nc1ccon1)c1ccc(OC2CCCC2)cc1 | 2% | -10 | 5 | -0.7 | 5
CCN(C#N)c1nc(NC(C)C)nc(NC(C)(C)C)n1 | 7% | . | 22 | 1.6 | -6
COc1cccc(-c2nn(-c3ccccc3)cc2C(=O)O)c1 | 9% | -4 | 19 | 1.2 | 7
CC1CN(C(=O)CCC(=O)N2CCOCC2)c2ccccc2O1 (stereo unspecified) | . | . | -8 | -0.9 | .
S=C(NCCN1CCOCC1)NC1CCCCC1 | 0% | . | -11 | 0.3 | .
CC(C)CN(C)C(=O)CC1C(=O)NCCN1C (stereo unspecified) | 1% | . | 0 | -2.4 | 3

The closing six records of the section above open the next one.
SMILES | Mtb H37Rv | YopH inh | Mtb bLac sens | RecA splice inh | Arbovirus inh | others
O=C(Nc1ccon1)c1ccc(OC2CCCC2)cc1 | 2% | -10 | 5 | -0.7 | 5
CCN(C#N)c1nc(NC(C)C)nc(NC(C)(C)C)n1 | 7% | . | 22 | 1.6 | -6
COc1cccc(-c2nn(-c3ccccc3)cc2C(=O)O)c1 | 9% | -4 | 19 | 1.2 | 7
CC1CN(C(=O)CCC(=O)N2CCOCC2)c2ccccc2O1 (stereo unspecified) | . | . | -8 | -0.9 | .
S=C(NCCN1CCOCC1)NC1CCCCC1 | 0% | . | -11 | 0.3 | .
CC(C)CN(C)C(=O)CC1C(=O)NCCN1C (stereo unspecified) | 1% | . | 0 | -2.4 | 3
O=C(NN1C(=O)c2cc(Br)ccc2NC1c1ccccc1Cl)c1ccncc1 (stereo unspecified) | 8% | 1 | . | 12 | 18
Cc1ccc(C(=O)NC(=S)Nc2ccccc2N2CCOCC2)cc1C | . | . | -6 | 0.5 | .
CSCCC(NC(=O)COc1ccccc1)C(=O)N1CCCC(C)C1 (stereo unspecified) | . | . | -21 | -0.4 | .
CN(C)S(=O)(=O)c1ccc(NC(=O)c2c(F)cccc2Cl)cc1 | -5% | -39 | -2 | 5.7 | 1
Nc1nc2ccccc2n1/N=C/c1cccnc1 | 1% | -20 | -9 | -0.2 | -6
COc1cccc(CCc2nnc(CCC(=O)N3CCN(Cc4ccccn4)CC3)o2)c1 | 4% | . | 6 | 3.1 | 5
CC(C)N(C#N)c1nc(N2CCOCC2)nc(N2CCOCC2)n1 | -10% | -51 | -10 | -1.1 | -6
CCCCCSc1ncccc1C(=O)O | -4% | . | -4 | -9.0 | .
CCc1ccc(C(=O)NNC(=O)C2CCN(c3ncnc4sc(C)c(C)c34)CC2)cc1 | . | . | 12 | 0.9 | .
COc1cccc(N2CCN(C(=O)c3ccc(CS(=O)c4ccc(C)cc4)o3)CC2)c1 (stereo unspecified) | . | . | -9 | 0.2 | .
CCc1cccc(C)c1NC(=S)NCc1ccc2[nH]c(C)cc2c1 | 8% | -30 | -9 | -2.6 | 3
COc1ccc(C(=O)Oc2ccc3c(c2)OCO3)cc1OC | -7% | -9 | 31 | -4.3 | 8 | Arbovirus inh repeat=5
CC(Oc1cc2oc(=O)c3c(c2cc1Cl)CCC3)C(=O)NCC1CCC(C(=O)O)CC1 (stereo unspecified) | . | . | 2 | -0.4 | .
Cc1ccnc(NC(=O)CCC(=O)N(CC(=O)NCCc2ccccc2)c2ccccc2F)c1 | . | . | -3 | -0.6 | .
COC(=O)CSc1ccc(-c2nc3ccc(C)cc3[nH]2)cn1 | 1.9µM* | -11 | 100 | -3.4 | -17
COc1ccc(N(CCC(=O)O)S(=O)(=O)c2ccc(C)cc2C)cc1 | -13% | . | -5 | -1.4 | 8
COc1cc(OC)cc(-c2cc(N3C(=O)Nc4ccccc4N3O)n[nH]2)c1 | -13% | -24 | -4 | 0.7 | 7
CC1(c2ccc(OC(F)F)cc2)NC(=O)N(CC(=O)Nc2cccnc2Cl)C1=O (stereo unspecified) | . | . | -5 | -1.9 | .
CC1(C)Cc2c(sc3nc(N/N=C/c4ccccc4)[nH]c(=O)c23)CO1 | 0% | -32 | 3 | -23 | -9
O=C(CNC(=O)c1ccc(Cl)cc1)OCC(=O)c1ccc2c(c1)OCCO2 | -7% | -17 | 2 | . | 3
CN1CCN(C2=C(Cl)C(=O)N(C3CCCCC3)C2=O)CC1 | 1% | -38 | 7 | 0.8 | -9
COc1ccc2c(-c3ccccc3)cc(=O)[nH]c2c1 | 32% | -27 | . | 0.1 | -8
O=C(CNS(=O)(=O)c1ccc(Br)s1)NC1CCCc2ccccc21 (stereo unspecified) | 0% | -36 | -10 | 2.1 | -19
Cc1ccc(N=C2CCCN2Cc2ccccc2)c(C#N)c1 | 16% | 6 | 18 | 1.2 | -7
Cc1ccc2c(c1)nnn2C1CCN(S(=O)(=O)c2ccc(C(=O)O)cc2)CC1 | 4% | . | -3 | -1.2 | 2
COc1cc(CC(=O)OCC(=O)N2CC(C)CC(C)C2)cc(OC)c1OC (stereo unspecified) | . | . | 0 | -1.1 | .
C=CCOC(=O)C1=C[C@H](c2ccc3c(c2)OCO3)C[C@H](OCCCCO)O1 | -1% | . | -1 | -3.3 | .
COCCNc1nc(-c2cc(C(=O)Nc3ccccc3)on2)cc(C(C)C)n1 | -12% | . | 48 | -1.1 | .
O=C(c1cc2cc(Cl)ccc2[nH]1)N1CCC2(CC1)OCCO2 | . | . | 3 | 2.7 | .
CCOc1ccc(NC(=O)Cc2cccc3ccccc23)c([N+](=O)[O-])c1 | -4% | -39 | 7 | -4.4 | 7
CC(C)(C)n1nc2c(c1NC(=O)c1ccc(S(=O)(=O)N3CCCC3)cc1)CSC2 | -3% | -6 | -8 | -0.7 | 4
Cc1ccc(S(=O)(=O)N2CCNC(=O)CC2)cc1 | -7% | . | 0 | -3.0 | 1
O=C(NCc1ccc(F)cc1)c1ccncc1 | . | . | 3 | -2.6 | .
CC1CCCC(C)N1S(=O)(=O)c1ccc(NC(=O)CCn2cnc3ccccc3c2=O)cc1 (stereo unspecified) | 1% | -9 | 4 | -1.4 | 5
O=C(O)c1ccc(CNCc2ccc(F)cc2)cc1 | -3% | . | 1 | 1.5 | -4
CC(Oc1ccc(F)cc1)C(=O)N(CCC1=CCCCC1)c1c(N)n(Cc2ccccc2)c(=O)[nH]c1=O (stereo unspecified) | . | . | -1 | -0.1 | .
Cc1cc(N2CCOCC2)nc2ccccc12 | 1% | -28 | -8 | 0.1 | -3
Cc1ccc(CNC(=O)c2cc3c(=O)n4ccccc4nc3n(Cc3ccco3)c2=N)cc1 | 4% | . | 63 | -60 | .
O=C(COc1ccccc1)N1CCN(C(=O)COc2ccccc2)CC1 | . | . | 4 | -0.5 | .
COc1ccc(-c2cn3cc(Br)cnc3n2)cc1 | -7% | . | -2 | -7.8 | -10
COc1ccc(-c2ccnc3nc(-n4cccc4)nn23)cc1 | 2% | -28 | 7 | . | -7
CCOC(=O)C1CCCN(C(=O)c2ccccc2Oc2ccccc2)C1 (stereo unspecified) | -16% | 9 | -4 | 5.2 | 1 | Arbovirus inh repeat=3
O=C(O)c1cc(NS(=O)(=O)c2ccc3ccccc3c2)ccc1O | . | . | 4 | -0.7 | .
Cn1c(=O)c2c3c(sc2n2c(SCc4ccccc4)nnc12)CCCC3 | 18% | -14 | 1 | 2.6 | -20
CC(CNC(=O)CCn1ccc2cc(S(=O)(=O)N3CCCC3)ccc21)c1ccccc1 (stereo unspecified) | . | . | -4 | 4.6 | .
CCOC(=O)c1ccc(NC(=S)NCCc2ccccc2)cc1 | 28% | -33 | 85 | 10.0 | 17
CCOC(=O)c1ccc(NS(=O)(=O)c2cc3c(cc2C)NC(=O)CO3)cc1 | . | . | 66 | -0.9 | .
O=C(NCCn1cccn1)c1ccc(OC2CCN(C(=O)C3CC3)CC2)cc1 | 2% | . | 4 | . | 11
CCCCN1C(=O)C(=O)N(CC(=O)Nc2cc(OCC)c(N3CCOCC3)cc2OCC)C1=O | -4% | . | 0 | -5.1 | 3
COCCN(CCOC)C(=S)Nc1ccccc1Cl | -9% | . | 1 | 0.0 | 16
CN1CCN(C(=O)C2=C[C@H](C3CCCCC3)C[C@H](OCc3ccc(CO)cc3)O2)CC1 | -6% | . | -3 | -0.9 | 5
CC(=O)Nc1ccc(S(=O)(=O)NNC(=O)COc2ccc(Cl)cc2Cl)cc1 | . | . | -5 | -0.7 | .
COCCN1CCN(C(=O)c2ccc3c(c2)S(=O)(=O)c2ccccc2C3=O)CC1 | -9% | . | 2 | -0.1 | .

Some of the compounds tested; rates above refer to the full screens.
